Compound activity from PubChem BioAssay.
NPYLR7 ag: mosquito NPYLR7 agonism | HEK293T NPYLR7/Galpha15, GCaMP6s calcium fluorescence | activation, % at 10 µM | 270,000 tested, 0.15% active | AID 1259423; in the data active = activation above about 40%;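 also: 0% = vehicle and 100% = reference agonist at the receptor; some compounds past the cut are filed as inactive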
NPYLR7 ag max-min: also measured in NPYLR7 ag; calls as there; activation, %; measured here: Max-Min RFU normalised activation; some inactives read as strong as hits;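 span of the calcium signal over five minutes; 0% = vehicle and 100% = native peptide agonist; compound fluorescence can raise it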
Starred values were filed as active, the others as inactive; & = joins results of further samples. Only part of the results is shown. The share of hits here may be higher or lower than overall.

cpd | compound | NPYLR7 ag | NPYLR7 ag max-min
1 | COc1ccc(N2CCN(C(=O)c3cc(-c4ccccc4)n(-c4ccc(OC)cc4OC)c3C)CC2)cc1 | -1 | 2
2 | COc1ccc(S(=O)(=O)N2CCN(c3ccc(C)c(Cl)c3)CC2)cc1 | -1 | -6
3 | CCOC(=O)NN=Cc1c(F)c(F)c(F)c(F)c1F | -3 | -6
4 | Cc1cc(C(=O)N2CCC(NC(=O)c3ccccc3)CC2)c(C)n1C(C)C | 10 | 4
5 | CCO[C@H]1COC[C@@H]1NC1CCC2(CCNCC2)CC1 | 3 | 8
6 | C=C1c2ccccc2NC(=O)N1Cc1ccc(NC(=O)C2CC2)cc1 | 5 | 5
7 | CCN(CC)S(=O)(=O)c1cc(C(=O)Nc2cccc(O)c2)ccc1Cl | 4 | -2
8 | CC/C=C(/C)C(=O)NC(C)C(=O)NC1CCCC1 (stereo not given) | -1 | -3
9 | CC1=C(c2ccccc2)CS1(=O)=O | -10 | -13
10 | Cc1noc2nc(-c3ccco3)cc(C(=O)Nc3ccc(NC(=O)c4ccco4)cc3)c12 | 10 | 14
11 | CC(C)c1ccc(C=NCCCO)cc1 | 1 | 0
12 | Cc1nc(CCNC(=O)C2CCC(=O)N(Cc3ccc(Cl)cc3)C2)sc1C (stereo not given) | 1 | -1
13 | Clc1ccc(Cn2ncc3c(N4CCCC4)ncnc32)cc1 | -2 | -7
14 | CNC(=O)CSc1nc(N)c(NC(=O)c2ccccc2)c(=O)[nH]1 | -1 | -4
15 | O=C(COc1ccc(Cl)cc1)N1CCCC(OCc2ccc(OC(F)(F)F)cc2)C1 (stereo not given) | 17 | 17
16 | CCCCNC(=O)c1ccc2nc(CC)c(N(CC)CCN(C)C)n2c1 | -6 | -10
17 | COC(=O)C1CCN(C(c2ccc(Cl)cc2)C2Sc3nc(C)nn3C2=O)CC1 (stereo not given) | 3 | -1
18 | CCN(CC)c1onc(-c2ccccc2)c1CN(C(=O)c1cccc(C(F)(F)F)c1)C1CC1 | 2 | 4
19 | CC(=O)Nc1nc2ccc([N+](=O)[O-])cc2s1 | 22 | -6
20 | O=C(NCCCOCC1CC1)c1cc(=O)[nH]c2ccccc12 | 10 | 7
21 | COc1ccc(C)cc1NC(C(=O)N(C)C)c1ccccc1 (stereo not given) | 1 | -1
22 | CCOc1ccccc1NC(=O)c1c(NC(=O)c2cccs2)sc2c1CCC(C)C2 (stereo not given) | -1 | -2
23 | CN(CCc1ccccn1)C(=O)C1CSC(c2cccc(Br)c2)N1C(=O)OC(C)(C)C (stereo not given) | -18 | -26
24 | Cn1c(NC(=O)c2cccs2)c(-c2cccs2)c(=O)c2ccccc21 | 2 | 0
25 | O=S(=O)(c1ccc(F)cc1)N1CCN(Cc2ccccn2)CC1 | 14 | 6

Of the compounds above, these have an NH in an aromatic ring:
cpd | compound | NPYLR7 ag | NPYLR7 ag max-min
14 | CNC(=O)CSc1nc(N)c(NC(=O)c2ccccc2)c(=O)[nH]1 | -1 | -4
20 | O=C(NCCCOCC1CC1)c1cc(=O)[nH]c2ccccc12 | 10 | 7

The listing picks up with the 5 entries that preceded the break.
cpd | compound | NPYLR7 ag | NPYLR7 ag max-min
21 | COc1ccc(C)cc1NC(C(=O)N(C)C)c1ccccc1 (stereo not given) | 1 | -1
22 | CCOc1ccccc1NC(=O)c1c(NC(=O)c2cccs2)sc2c1CCC(C)C2 (stereo not given) | -1 | -2
23 | CN(CCc1ccccn1)C(=O)C1CSC(c2cccc(Br)c2)N1C(=O)OC(C)(C)C (stereo not given) | -18 | -26
24 | Cn1c(NC(=O)c2cccs2)c(-c2cccs2)c(=O)c2ccccc21 | 2 | 0
25 | O=S(=O)(c1ccc(F)cc1)N1CCN(Cc2ccccn2)CC1 | 14 | 6
26 | Cc1cccc(NC(=O)c2cc(C(C)C)n(-c3nc4ccccc4s3)n2)n1 | 13 | 0
27 | COc1cccc(C(=O)N[C@H]2CN[C@H](C(=O)N[C@@H](C)C3CCCCC3)C2)c1 | -5 | -8
28 | CC(=O)Nc1ccc(C2=N/C(=C/c3ccccc3)C(=O)O2)cc1 | -1 | -8
29 | O=C(COc1cccc2cccnc12)N/N=C\c1ccc(Oc2ccc([N+](=O)[O-])cn2)cc1 | 1 | -1
30 | CCC(=O)Nc1cc(C)c2c(=O)oc3ccccc3c2n1 | 0 | -4
31 | O=C1OC(N2CCCC2)c2ccccc21 (stereo not given) | 1 | 3
32 | COCCOC(=O)C1=C(C)N(c2ccc3c(c2)OCO3)C(=O)NC1c1c(F)cccc1F (stereo not given) | -2 | 3
33 | O=C(NC1CC1c1cccc(Cl)c1)N1CCC2(C1)OCCO2 (stereo not given) | 23 | 24
34 | CC(C)Cn1cnc2c1c(=O)[nH]c(=O)n2CC(C)C | -2 | 0
35 | CC(C)(CO)Nc1nc(Cl)nc(N2CCOCC2)n1 | 1 | 0
36 | CN(C)c1ccc(CNC(=O)Cc2csc(NC(=O)c3ccco3)n2)cc1 | 25 | 26
37 | Cc1ccc(CNC(=O)c2n[nH]c(C(C)C)c2Br)n1C | 2 | 1
38 | CN(C)c1cccc(C(NC(=O)CCCCC2CCSS2)c2ccc(S(C)(=O)=O)cc2)c1 (stereo not given) | -17 | -22
39 | Cc1ccc(C)c(Cn2c(CN3CCc4ccccc4C3)nc3c2c(=O)n(C)c(=O)n3C)c1 | 6 | 2
40 | COc1ccc(-c2noc(-c3c(SC)nn(CC(=O)Nc4ccc(C)cc4)c3N)n2)cc1OC | -4 | -15
41 | Cc1nn(C(C)C(=O)NC2CCCC2)c(=O)c2cc3occc3n12 (stereo not given) | -7 | -6
42 | CC(C)COCC(O)CNC(Cc1ccccc1)c1nc(-c2ccc([N+](=O)[O-])cc2)no1 (stereo not given) | 4 | 5
43 | CCOc1ccc(-c2nc(Cn3c(=O)n(C(C)C)c(=O)c4ccccc43)c(C)o2)cc1 | 0 | -7
44 | O=C(NCC1(O)CCCNCC1)C1(c2ccc(Cl)cc2)CCCCC1 (stereo not given) | 18 | 13
45 | Cc1ccccc1N1CCCN(Cc2ccc(N3CCNC3=O)cc2)CC1 | 2 | 2
46 | CC(C)C(C)NC(=O)CNC(=O)C1CC1C (stereo not given) | 3 | 1
47 | C=C(C)CN(CC)Cn1nnn(-c2ccccc2)c1=S | -1 | -7
48 | COc1ccc(N2CCN(c3cc(C(=O)NCc4ccc(Cl)cc4)c4ccccc4n3)CC2)cc1 | 10 | 7
49 | O=C(CCCn1nnnc1CN1CCOCC1)NCC1OCCc2ccccc21 (stereo not given) | 0 | -4
50 | CC(Cc1ccccn1)N(C)C(=O)Cc1cn(C)c2ccccc12 (stereo not given) | -2 | -3

(further entries)
cpd | compound | NPYLR7 ag | NPYLR7 ag max-min
51 | Cc1cccc2sc(N(CCCn3ccnc3)C(=O)c3cccs3)nc12 | -13 | -17
52 | CCOc1c(Cl)cc(C(=O)NC2=NCCS2)cc1OC | 0 | -3
53 | O=C1CN(C(=O)/C=C/c2ccc(-c3ccccc3Cl)s2)CCN1 | 7 | 2
54 | CCCCN(C)c1c(CC)nc2ccc(C(=O)N3CCN(c4ccccc4)CC3)cn12 | 5 | -8
55 | CCOC(=O)c1ccc2c(c1)sc(=NC(=O)C1=COCCO1)n2C | -9 | -13
56 | NC(=O)CCNC(=O)Nc1cc(Cl)cc(Cl)c1 | 8 | 3
57 | CNC(=O)[C@@]1(OCc2cccc(Cl)c2)CC(OCc2cccc(OC(F)(F)F)c2)[C@@H]2OC(C)(C)O[C@@H]2C1 (stereo not given in full) | 6 | 15
58 | O=C(NCc1noc(C2CCCC2)n1)c1cc(C2CC2)[nH]n1 | 18 | 9
59 | O=C(CCC1CCCCC1)NCCn1ncc2c(N3CCCCC3)ncnc21 | 1 | -2
60 | O=C(c1cc(-c2cccs2)nn1-c1ccccc1Cl)N1CCN(c2ccc([N+](=O)[O-])cc2)CC1 | 4 | 5
61 | CC1(C(=O)NCc2cccnc2Oc2cccc(C(F)(F)F)c2)CCCO1 (stereo not given) | 0 | -3
62 | Cn1c(=O)c2c(nc(CN3CCOCC3)n2Cc2c(Cl)cccc2Cl)n(C)c1=O | 6 | 0
63 | Clc1ccc(-c2nc(Cl)nc3ccccc23)cc1 | -1 | -7
64 | COC(=O)[C@H]1C[C@@H](O)CCN1S(=O)(=O)N(C)C | 3 | 2
65 | CCc1cc(C(=O)N/N=C\c2ccccc2O)c2ccccc2n1 | -4 | -6
66 | COc1cccc(NS(=O)(=O)c2cn(C)c(=O)n(C)c2=O)c1 | 1 | 0
67 | CCC(CC)n1c(=O)n(CC(=O)N(C)C)c2cc(C(=O)O)cnc21 | 0 | 7
68 | O=C(NCc1ccc2c(c1)OCO2)c1csc(COc2cccc(F)c2)n1 | -4 | 1
69 | COc1cccc(CNC(=O)N2CCN(c3ncccc3C(=O)NCc3cccs3)CC2)c1 | -2 | -12
70 | COc1ccccc1OCCn1c(C2CCCO2)nc2ccccc21 (stereo not given) | 12 | 11
71 | CCc1nc2n(n1)C(=O)C(C(c1ccccc1)N1CCc3ccccc3C1)S2 (stereo not given) | -3 | -8
72 | CCN(CCn1cccn1)C(=O)c1cc(COc2ccc(F)cc2Cl)on1 | 5 | 9
73 | Cc1ccc(S(=O)(=O)n2cc(C(C#N)N3CCOCC3)c3ccccc32)cc1 (stereo not given) | -2 | 0
74 | O=C1CCC(c2cccs2)=C1CC(=O)N1CC[C@H](O)[C@@H](O)C1 | 6 | 3
75 | Cc1noc(C)c1C(=O)NC1CCSC1 (stereo not given) | 2 | 1

(list continues)
cpd | compound | NPYLR7 ag | NPYLR7 ag max-min
76 | Cc1ccc(C(CN2CCOCC2)NC(=O)COc2ccc(Cl)cc2Cl)cc1 (stereo not given) | 4 | 4
77 | O=C(CSc1nnc(CCn2ccc(=O)[nH]c2=O)o1)N1CCc2ccccc2C1 | 2 | 1
78 | O=C(CNC(=O)Cc1ccccc1)N=Nc1c(O)[nH]c2ccc([N+](=O)[O-])cc12 | -6 | -11
79 | CC(Cc1nc2ccccc2c(=O)n1CCc1ccccc1)CC(C)(C)C (stereo not given) | 5 | 0
80 | Cc1ccc(OC(C)C(=O)NC(C)c2cccc3ccccc23)cc1 (stereo not given) | -3 | -3
81 | O=C1CCc2cc(C(=O)OCc3cccc4cccnc34)ccc2N1 | 2 | 1
82 | Cn1c(=O)n(Cc2ccccc2)c(=O)c2c1nc1n2CCN1c1cccc(Cl)c1 | 5 | 3
83 | Cc1ccccc1C1c2ccsc2CCN1C(=O)CCc1ccccc1 (stereo not given) | 3 | 12
84 | COc1cc(/C=N\n2cnnc2)c(Br)cc1OCc1ccc(Cl)cc1 | -12 | -16
85 | CCn1c(=O)c(C(=O)NC2CC2)nn(-c2cccc(C)c2)c1=O | 13 | 16
86 | O=C(O)C1Cc2c([nH]c3ccccc23)C(c2ccccc2[N+](=O)[O-])N1 (stereo not given) | -6 | -13
87 | Cc1cc(C)c(C)c(C(=O)C2OC(=O)C(C)(C)C(=O)C2(C)C)c1C (stereo not given) | 1 | 0
88 | O=C(NCCc1ccccc1F)C(=O)c1ccc(C2CCCCC2)cc1 | -11 | -17
89 | FC(F)(F)c1cccc(CC2CN(CCCn3cccn3)CCO2)c1 (stereo not given) | 7 | -2
90 | O=C(CN(C1CC1)S(=O)(=O)c1ccc(Cl)cc1)N(CCc1c[nH]c2ccccc12)Cc1ccc(Cl)c(Cl)c1 | 17 | 15
91 | CCN(CC)C(=O)c1coc(CN2C(=O)COc3ccc(C(=O)COc4ccc(C)c(C)c4)cc32)n1 | 5 | 4
92 | CCn1cc(C(=O)N2CCN(C(=O)c3ccc(OC)cc3)CC2)c2nn(-c3ccccc3)c(=O)c-2c1 | -1 | -1
93 | CCC(C(=O)NC1CCN(c2ccccc2C(=O)NCCOC)CC1)c1ccccc1 (stereo not given) | 18 | 14
94 | CN1CCN(C)C2(CCN(C(=O)c3c[nH]c4cc(Cl)ccc4c3=O)CC2)C1 | 7 | 3
95 | Cc1noc(C)c1S(=O)(=O)N1CCCC1c1ccccn1 (stereo not given) | 12 | 9
96 | Cc1ccc(-c2[nH]ncc2CN(Cc2c(C)nn(C)c2C)C2CC2)cc1C | 3&2 | 0&0
97 | c1ccc2[nH]c(NN=C3CCCC3)nc2c1 | 16 | 7
98 | O=C1O[C@@H]2[C@H]3[C@@H]([C@H]1C[C@H]2O)N(Cc1ccco1)C(=S)N3Cc1ccc(F)cc1 | -6 | -14
99 | Cc1ccccc1Cn1cnc2c(nnn2Cc2ccc(Cl)cc2)c1=O | 10 | 9
100 | Cc1ccc(Nc2cc(C)nc(N3CCN(C(=O)c4ccccc4)CC3)n2)cc1 | 5 | -1

3 entries picked at random from those above:
cpd | compound | NPYLR7 ag | NPYLR7 ag max-min
99 | Cc1ccccc1Cn1cnc2c(nnn2Cc2ccc(Cl)cc2)c1=O | 10 | 9
80 | Cc1ccc(OC(C)C(=O)NC(C)c2cccc3ccccc23)cc1 (stereo not given) | -3 | -3
78 | O=C(CNC(=O)Cc1ccccc1)N=Nc1c(O)[nH]c2ccc([N+](=O)[O-])cc12 | -6 | -11

Continued:
cpd | compound | NPYLR7 ag | NPYLR7 ag max-min
101 | COC(C)(C)c1cc(-c2cccc3ccccc23)nc(N)n1 | 2 | -1
102 | CN(C)c1c2c(c(C#N)c3nc4ccccc4n13)CCC2 | 2 | -3
103 | CCCOC(=O)C1=C(C)NC2=C(C(=O)CC(c3ccccc3)C2)C1c1ccc(C)cc1 (stereo not given) | 1 | 5
104 | CCCCCn1c(=O)c2c(nc3n2CCN3c2ccc(Br)cc2)n(C)c1=O | 4 | -1
105 | COc1ccccc1C(C)NC(=O)Cn1nc(C)cc1C (stereo not given) | 8 | 11
106 | CCc1nnc(NC(=O)CCc2c(C)nc3cc(C)nn3c2C)s1 | 1 | 3
107 | CN(C)C(=S)Nc1ccc(Cl)cc1Cl | -5 | -9
108 | CC(C)C(NC(=O)C1CCCCC1)C(=O)N1CCN(c2ccccc2)CC1 (stereo not given) | 8 | 6
109 | CCc1[nH]nc(C(=O)N2CCCC(Nc3ccc(C(C)C)cc3)C2)c1C (stereo not given) | 3 | 1
110 | CC(C)(C)c1cnc(CS(=O)(=O)c2ccc3ccccc3n2)o1 | 6 | 4
111 | CC(NC(=O)c1c[nH]cc1-c1ccc(Cl)s1)c1ccc(S(C)(=O)=O)cc1 (stereo not given) | -3 | -6
112 | O=C(NCCSc1ccccc1)c1ccc(-n2cncn2)cc1 | -2 | -2
